Compound activity from PubChem.
VDR inhibitor: blocks the human vitamin D receptor | P11473 | VDR-SRC2-3 peptide fluorescence polarization, 2 h | AID 504847 | 400,000 tested, 0.93% active | Potency, µM, for inactives: max response, negative = inhibition, hits mostly inhibitors; active means well fitted inhibition curve with a large enough effect; inconclusive means small, poorly fitted or top-dose-only effect, or another doubt; inactive means no such curve, though single readings can be large or run the other way; further: series mostly up to about 120 µM
Target sequence (P11473 whole entry, looked up): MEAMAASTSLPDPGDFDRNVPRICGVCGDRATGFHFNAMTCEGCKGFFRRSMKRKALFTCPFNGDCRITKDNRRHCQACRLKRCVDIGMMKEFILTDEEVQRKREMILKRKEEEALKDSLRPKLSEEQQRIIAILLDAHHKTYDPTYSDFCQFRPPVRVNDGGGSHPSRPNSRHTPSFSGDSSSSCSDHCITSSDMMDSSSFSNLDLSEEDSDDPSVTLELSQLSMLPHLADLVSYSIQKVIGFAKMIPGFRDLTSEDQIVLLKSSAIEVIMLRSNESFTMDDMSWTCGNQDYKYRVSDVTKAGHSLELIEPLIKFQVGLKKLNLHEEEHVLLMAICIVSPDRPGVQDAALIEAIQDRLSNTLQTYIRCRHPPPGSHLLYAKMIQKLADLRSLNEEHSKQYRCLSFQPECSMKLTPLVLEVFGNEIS
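Fluorescence polarization assay of small-molecule disruption of VDR binding to coregulator peptide SRC2-3. Compounds and controls pin-transferred, then read after 2 h incubation at ambient room temperature.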
* hit, by the source's call; ? = inconclusive; & = joins results of further samples; [ ] = another dose, or the depositor's remark. On the % scale 0 is the no-effect control and ±100 the full control effect; potency means the concentration at half of the fitted maximal effect. This is a subset; the hit share may differ from the screen's.

item | SMILES | VDR inhibitor
1 | COc1ccc(OCc2cc(C(=O)NC(C)c3cnn(C)c3)no2)c(Cl)c1 (configuration not stated) | 0.5%
2 | COc1cccc(N2CCN(C(=O)Cn3ncc4c(=O)oc5ccccc5c43)CC2)c1 | -13.1%
3 | Cc1ccc(Cl)cc1N1CCN(C(=O)C2CCN(S(=O)(=O)c3ccc4c(c3)oc(=O)n4C)CC2)CC1 | -5.8%
4 | COc1cccc(N2CCN(CC(=O)Nc3ccnn3C3CCCC3)CC2)c1 | -2.2%
5 | O=C(NNS(=O)(=O)c1ccc2ccccc2c1)c1cccs1 | -11.8%
6 | CS(=O)(=O)N(CC(=O)Nc1ccc(S(=O)(=O)N2CCOCC2)cc1)c1ccccc1Br | 17.2%
7 | CC(=O)N1CCN(C(=O)c2cc(S(=O)(=O)NCc3ccccc3)ccc2C)CC1 | -9.0%
8 | O=C(NC(=S)NC(CO)c1ccccc1)c1ccc(F)cc1 (configuration not stated) | 3.3%
9 | Cc1cc(C=O)c(C)n1-c1ccc(N2CCCC2)c([N+](=O)[O-])c1 | -2.8%
10 | CC1(C)C2CCC1(CS(=O)(=O)NCc1ccc(Cl)cc1Cl)C(=O)C2 (configuration not stated) | ?
11 | CCOC(=O)c1nnn(-c2nonc2OC)c1-c1ccccc1 | -4.5%
12 | COc1ccc(CN2CCN(C(=O)c3ccc(S(=O)(=O)NCc4ccco4)cc3)CC2)cc1F | -19.1%
13 | CCN1CCCC1CNC(=O)c1ccc(N2CCOCC2)c(NS(=O)(=O)c2ccc(OC)cc2)c1 (configuration not stated) | 5.1%
14 | Cc1onc(-c2c(F)cccc2Cl)c1C(=O)NC(=S)NC1CCSC1=O (configuration not stated) | -28.7%
15 | COc1cnn(Cc2ccccc2)c(=O)c1SCc1ccccc1 | -15.4%
16 | CNC(=O)c1c(NC(=O)c2ccc(S(=O)(=O)N3CCCCC3C)cc2)sc2c1CCN(C)C2 (configuration not stated) | 37.3%[activator]
17 | COc1ccc(C(=O)n2nc(-c3ccco3)nc2N)cc1 | -10.2%
18 | CC1CCCCN1C(=O)CSc1nc(N)cc(=O)[nH]1 (configuration not stated) | 2.9%
19 | COC(=O)Cn1c(CN2CCN(c3ccccc3F)CC2)nc2c1c(=O)n(C)c(=O)n2C | -16.2%
20 | COc1ccc(NC(=O)C(=O)c2cn(CC(=O)N3CCCC3)c3ccccc23)c(OC)c1 | 6.5%
21 | CCN(CC)CCn1c2c(c(SCC(=O)Nc3nc4ccccc4s3)nc1=O)CCC2 | -5.3%
22 | CCOC(=O)c1c(NC(=O)C[n+]2ccc(N(C)C)cc2)sc(C)c1C | 20.6%
23 | O=C(COC(=O)Cc1c[nH]c2ccccc12)Nc1c(Cl)cccc1C(F)(F)F | 10.7%
24 | COc1cc(NC(=O)COC(=O)CCOc2ccc(C)cc2)cc(OC)c1 | -1.4%
25 | CC(NS(=O)(=O)c1ccc(Br)s1)c1ccccc1 (configuration not stated) | 16.9%

Molecules above that have an NH in an aromatic ring (2):
item | SMILES | VDR inhibitor
18 | CC1CCCCN1C(=O)CSc1nc(N)cc(=O)[nH]1 (configuration not stated) | 2.9%
23 | O=C(COC(=O)Cc1c[nH]c2ccccc12)Nc1c(Cl)cccc1C(F)(F)F | 10.7%

Carrying on:
item | SMILES | VDR inhibitor
26 | CCOCCCNC(=O)C(c1ccc(C)cc1)N(Cc1cccs1)C(=O)c1ccccn1 (configuration not stated) | -7.6%
27 | COc1cc(C(=O)Nc2ccc(NC(=O)c3cccc(Cl)c3)nc2)cc(OC)c1OC | 8.9%
28 | CCOC(=O)N1CCC(N(C(=O)Nc2ccccc2)C(C)CC)CC1 (configuration not stated) | 3.7%
29 | Brc1cccc(OCCOCCn2ccnc2)c1 | -2.7%
30 | Cc1cc(C)c2c(n1)nn1c(-n3ccnc3)cc(C)nc21 | -15.5%
31 | CC(=O)Nc1ccc(Nc2nc(Nc3ccc(Cl)cc3)nc(N3CCOCC3)n2)cc1 | -3.7%
32 | CCOC(=O)N1CCN(S(=O)(=O)c2ccc(C(=O)N(CCN(C)C)c3nc4ccc(CC)cc4s3)cc2)CC1 | 2.3%
33 | Cc1ccc(Nc2nc(N)nc(CN3CCN(Cc4ccccc4)CC3)n2)cc1Cl | -19.8%
34 | CC1=C(C(=O)OC2CCCC2)C(c2cccc(Cl)c2Cl)CC(=O)N1 (configuration not stated) | -2.1%
35 | O=C1NCCCC1C(=O)N1CCCCC1 (configuration not stated) | -12.0%
36 | O=C(Nc1ccc2oc(-c3ccc(O)c(Br)c3)nc2c1)c1cc2ccccc2o1 | -9.3%
37 | COc1cc2cc(CCCOC(=O)c3ccc(Br)cc3)oc(=O)c2cc1OC | ?
38 | O=[N+]([O-])c1cccc(-c2ccc(C(=S)N3CCOCC3)o2)c1 | -13.2%
39 | COc1ccc(-c2nn(-c3ccccc3)cc2/C=C2/SC(=S)N(Cc3ccco3)C2=O)c(C)c1 | -18.6%
40 | O=C(O)c1cc(S(=O)(=O)Nc2ccc3oc(=O)sc3c2)ccc1O | 79.4µM*
41 | COC(=O)c1ccccc1S(=O)(=O)NNC(=O)C12CC3CC(CC(C3)C1)C2 | -8.5%
42 | Cc1ccc(NC(=O)Cn2cnc3c2c(=O)n(C)c(=O)n3C)cc1C | 1.6%
43 | CCOc1cc(-c2nnc(SCC(=O)NC3CCCC3)nc2-c2ccc(OC)c(OCC)c2)ccc1OC | 5.0%
44 | COc1ccc(NC(=O)CN(C)C(=O)c2cc3c(cc2Cl)N2CCCCCC2=NS3(=O)=O)cc1 | 2.9%
45 | Cc1ccc(Cn2c(C(=O)O)c(CNCCc3cccs3)c3ccc(C)cc32)cc1 | -6.8%
46 | O=C(NCc1ccco1)C1CCCN(S(=O)(=O)c2ccc(-n3cnnn3)cc2)C1 (configuration not stated) | -12.5%
47 | Cc1ccc(Cl)cc1N1CCN(C(=O)c2ccc3c(c2)N(Cc2ccccc2)CCS3)CC1 | -4.4%
48 | COc1ccc(OC)c(C2CC(=O)N3CN(c4cccc(Cl)c4)CSC3=C2C#N)c1 (configuration not stated) | 50.1µM*
49 | CNC(=O)CN(c1ccc2c(c1)OCCO2)S(C)(=O)=O | 8.1%
50 | Cc1cccc(N2CCN(C(=O)c3ccncc3)CC2)c1C | -7.7%

Later entries:
item | SMILES | VDR inhibitor
51 | Cc1ccc(CN2CCN(Cc3cccn3-c3ccccn3)CC2CCO)o1 (configuration not stated) | -6.5%
52 | COc1ccc(N/N=C/c2c(C(=O)O)ccc3ccccc23)cc1 | -13.2%
53 | CCN(CC)C(=O)c1ncn(C)c1C(=O)N(CC)CC | 10.7%
54 | C/C(=N/NS(=O)(=O)c1ccc(C)cc1C)c1c[nH]c2ccccc12 | 2.2%
55 | COC(=O)C1=C(C)N=c2s/c(=C/c3cccs3)c(=O)n2C1c1ccc(F)cc1 (configuration not stated) | -8.6%
56 | COc1ccc(CCN2C(=O)N(c3cccc(OC)c3)C(=O)C2CC(=O)Nc2ccccc2)cc1 (configuration not stated) | -19.7%
57 | CCC(=O)N1CCc2cc(S(=O)(=O)CCC(=O)N3CCCC(C)C3)ccc21 (configuration not stated) | -16.6%
58 | CCOC(=O)c1ccc(NC(=O)C(Cc2ccccc2)N2Cc3ccccc3C2=O)cc1 (configuration not stated) | 0.2%
59 | Cc1ccc2c(C)c(C(=O)N3CCC(O)(c4ccccc4)CC3)oc2c1C | -3.3%
60 | CCC(=O)Nc1ccc(S(=O)(=O)Nc2nccs2)cc1 | -19.3%
61 | COc1ccccc1C(=O)NC(CCSC)C(=O)OCC(=O)N1CCCC1=O (configuration not stated) | -5.9%
62 | CCOC(=O)c1ccc(C(=O)NNC(=O)C2C3C=CC(C3)C2C(=O)O)cc1 (configuration not stated) | -23.4%
63 | Brc1ccc(-c2nn3c(-c4ccccn4)nnc3s2)o1 | 8.0%
64 | O=C(Nc1cccc(S(=O)(=O)N2CCOCC2)c1)c1ccc2ccccc2n1 | -16.5%
65 | COc1ccc(S(=O)(=O)N(C)C)cc1NC(=O)Cc1ccc(S(=O)(=O)N2CCOCC2)s1 | -2.3%
66 | COC(=O)C1=C(C)Nc2ncnn2C1c1ccc(C)o1 (configuration not stated) | 10.1%
67 | COc1cc(OC)c(OC)cc1CN1CCCC(C(=O)N2CCCC2)C1 (configuration not stated) | -1.2%
68 | Cc1cc(C(=O)Nc2cccc([N+](=O)[O-])c2)c(C)o1 | -18.9%
69 | Cc1ccc(S(=O)(=O)N2CCCOC2CNC(=O)C(=O)NCc2cccs2)cc1 (configuration not stated) | -17.6%
70 | N#Cc1nc(COc2ccccc2)oc1NCCCn1ccnc1 | 8.5%
71 | O=C1c2cccnc2C(O)N1Cc1ccccc1 (configuration not stated) | -1.2%
72 | COc1ccc(Cn2c(=S)[nH]c3cc(C(=O)NCCCN4CCOCC4)ccc3c2=O)cc1 | -5.0%
73 | CN(C)S(=O)(=O)N1CCN(CC(O)COc2ccc(-c3ccccc3)cc2)CC1 (configuration not stated) | -5.8%
74 | COCCn1c(=O)[nH]c2cc(C(=O)N3CCN(c4cccc(C)c4C)CC3)ccc2c1=O | 6.6%
75 | CC(C)C(=O)NC(=O)[C@@H]1CCCN1C(=O)/C=C/c1ccccc1 | -4.6%

Further results:
item | SMILES | VDR inhibitor
76 | Cc1cc(=O)[nH]c(Nc2cccc(C(F)(F)F)c2)n1 | 2.5%
77 | CCOC(=O)c1c(C)[nH]c(C)c1C(=O)CN1C(=O)NC2(CCCCCC2)C1=O | -0.9%
78 | CCCN1C(=O)c2cc(C(=O)NC3CCCC3)ccc2C1O (configuration not stated) | -1.6%
79 | O=C(COc1ccc(Cl)cc1)NNC(=O)c1cccnc1 | 6.0%
80 | Cc1ccccc1NC(=O)Cn1cnc2c(oc3nc4c(cc32)COC(C)(C)C4)c1=O | -4.1%
81 | O=C(C1=C[C@H](c2coc3ccccc3c2=O)C[C@H](OCc2ccc(CO)cc2)O1)N1CCN(Cc2ccccc2)CC1 | -16.8%
82 | CC(=O)N1CCN(C(=O)c2ccc3c(c2)OCCO3)CC1 | -4.8%
83 | CC(C)COP(=O)(c1ccc(N(C)C)cc1)C(Nc1ccccc1)c1ccccc1 (configuration not stated) | 6.1%
84 | Cc1c(C(c2ccc(O)cc2)c2c(C)n(C)n(-c3ccccc3)c2=O)c(=O)n(-c2ccccc2)n1C | 30.9%[activator]
85 | CC(NC(=O)c1ccco1)C1CCCO1 (configuration not stated) | 13.3%
86 | CCOc1ccc(NC(=O)CN(C)C(=O)c2ccc(OCc3ccccc3)c(OC)c2)cc1OCC | -8.5%
87 | Cc1ccc2c(=O)cc(C(=O)N(Cc3ccc(C(C)(C)C)cc3)C3CCS(=O)(=O)C3)oc2c1 (configuration not stated) | -5.9%
88 | Cc1nc(SCC(=O)NC(=O)NCc2ccco2)nc(C)c1C | 4.8%
89 | Cc1cccc(-c2nnc(SCCOc3ccc4c(C)cc(=O)oc4c3)o2)c1 | -0.9%
90 | Cc1ccc(C2=NS(=O)(=O)N(C)C(C(=O)NC3CCCC3)=C2)cc1 | -6.7%
91 | CC(C)c1nc2sc3c(=O)n(N)cnc3c2c2c1COC(C)(C)C2 | 13.4%
92 | O=S(=O)(c1ccc(F)cc1)N1CCN(c2ncccn2)CC1 | -2.5%
93 | O=C(CSc1ccccc1C(=O)O)Nc1cccc(C(=O)O)c1 | 3.3%
94 | COc1cc(/C=N/NC(=O)Cc2c[nH]c3ccccc23)cc(OC)c1OC | -7.1%
95 | NS(=O)(=O)c1ccc(CCNC(=O)c2cc3ccccc3oc2=O)cc1 | -1.2%
96 | CCCCOc1ccc(NC(=O)C(=O)NCCC2=CCCCC2)cc1 | -16.1%
97 | Cc1nnc2n(-c3ccccc3)c(=O)c3c4c(sc3n12)COC(C)(C)C4 | 5.0%
98 | CCOC(=O)c1ccc(CN(Cc2ccc(F)cc2)S(=O)(=O)c2ccc(F)c(C(=O)Nc3cc(Cl)ccc3OC)c2)cc1 | 6.0%
99 | Cc1nn(C)cc1C1C(C#N)=C(N)N(c2ccc(F)c([N+](=O)[O-])c2)C2=C1C(=O)CCC2 (configuration not stated) | 4.7%
100 | O=C(NCC(c1ccco1)N1CCCC1)c1ccccc1Sc1ccc(C(F)(F)F)cc1[N+](=O)[O-] (configuration not stated) | -14.6%

Copied from the list:
Reading for cpd 81 under VDR inhibitor: -16.8%
Reading for cpd 85 under VDR inhibitor: 13.3%
Reading for cpd 76 under VDR inhibitor: 2.5%

Other records.
item | SMILES | VDR inhibitor
101 | COc1ccc2nc(/C=N/NC(=O)[C@H](CCSC)NC(=O)OC(C)(C)C)ccc2c1 | -5.5%
102 | COc1cc(N)c2ncccc2c1OC | -12.4%
103 | CC(C)CCNC(=O)c1ccc2c(c1)ncn2C1CCCCC1 | 0.0%
104 | CCC1(C(=O)c2ccccc2)C2c3cc(Br)ccc3OC(=O)C21C(=O)N1CCOCC1 (configuration not stated) | 2.3%
105 | O=C(NCc1ccco1)/C(=C/c1cccc([N+](=O)[O-])c1)NC(=O)c1ccco1 | -17.0%
106 | CC1CCC(C(=O)NC(C(=O)NCCCN2CCOCC2)C(C)C)CC1 (configuration not stated) | -8.7%
107 | COc1ccc(NC(=O)c2oc3ccccc3c2NC(=O)c2cc3ccccc3o2)c(OC)c1 | -2.6%
108 | Oc1cc(O)c2c(c1)O[C@H](c1ccc(O)c(O)c1)[C@@H](O)C2 | 1.5%&-1.5%
109 | O=C(CCSCc1cccc(Cl)c1)NC1CCCC1 | 7.7%
110 | O=C(CCc1nc2ccccc2s1)c1ccccc1 | -6.2%
111 | COC(=O)CSc1nnc(CNC(=O)c2ccccc2F)n1-c1ccccc1 | ?
112 | O=C(NCc1ccccc1)c1c(F)c(F)c(F)c(F)c1F | -12.1%
113 | CCOc1ccc(C(=O)n2cc(C(=O)OC)c3ccccc32)cc1OCC | 7.7%
114 | CCN(CC)S(=O)(=O)c1ccc(C(=O)NNC(=O)c2cccs2)cc1 | -6.7%
115 | CCOC(=O)C1CCCN(CC(O)COC(c2ccccc2)c2ccccc2)C1 (configuration not stated) | -8.4%
116 | COc1ccccc1NS(=O)(=O)c1cccc(-n2c(O)c(C=Nc3ccccc3C(=O)O)c3ccccc3c2=O)c1 | -18.1%
117 | Cc1ccc2[nH]c(=O)c3cc(C(=O)N(C)C4CCCCC4)sc3c2c1 | -7.1%
